HIV fusion peptide – inhibitors of HIV fusion peptide binding, primary screen, biochemical, uHTS, fluorescence dequenching (AID 1986) | cell-free peptide binding, fluorescence dequenching, 30 min; higher % means a stronger effect | one-dose inhibition, % at 20 µM; IC50 in µM for titrated hits | hit rate 0.3% among 290,000; in the data active = inhibition mostly above about 52%, no sharp cut-off; inactive = mostly below about 76%; also: some results filed as inactive read as strong as hits
Myeloid diff 2 – promotes myeloid progenitor differentiation. ER-HoxA9 myeloid progenitors, lysozyme-GFP differentiation, flow cytometry. calls only at 10 µM. hit rate 1% among 360,000;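 active = normalized GFP-positive differentiation at or above the plate's own cutoff, the solvent-only control mean plus 3 SD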;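 also: cells exposed to compound for four days before flow analysis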
LYP phosphatase – PTPN22 lymphoid phosphatase activity blockers – biochemical, fluorescence intensity, uHTS (AID 1779). recombinant LYP phosphatase, fluorescence intensity; higher % means a stronger effect. inhibition, % at 11.5 µM, or IC50 in µM where a hit was titrated. hit rate 0.054% among 290,000; in the data active = inhibition above about 50%;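 also: plate controls were vehicle with enzyme for no effect and no enzyme for full effect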
PhoP inhibition – inhibitors of PhoP regulon expression, primary screen, Salmonella Typhimurium, GFP reporter (AID 1863); hit rate 0.16% among 300,000; S. Typhimurium PhoP-regulated promoter GFP reporter, 4 h; higher % means a stronger effect; one-dose inhibition, % at 50 µM; IC50 in µM for titrated hits;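 active = inhibition over 29.93%, a cutoff 3 SD above the screen mean, later confirmed by dose response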;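 also: 0% = low Mg2+ inducing control and 100% = high Mg2+ repressing control; strong numbers were not always called active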
KOR beta-arrestin – kappa opioid receptor activators – cell-based, luminescence, uHTS, primary screen (AID 1777); KOR beta-arrestin recruitment, luminescence; higher % means a stronger effect; one-dose activation, % at 10 µM; EC50 in µM for titrated hits; hit rate 0.02% among 280,000; in the data active = activation above about 50%, passing the limit was not always enough; also: a part of the inactive calls stands beside numbers as strong as those of hits
Siah-1 displacement – blockers of Siah-1 interaction with plectin peptide – biochemical, fluorescence polarization, rhodamine-plectin, uHTS, primary screen (AID 1817); Siah-1 / rhodamine-plectin peptide fluorescence polarization; higher % means a stronger effect; one-dose displacement, % at 20 µM; IC50 in µM for titrated hits; hit rate 0.02% among 290,000;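 active = displacement of at least 50% at 20 µM, with a fluorescence ratio check between 0.3 and a set limit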;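 also: plate controls were Siah plus tracer with DMSO for no effect and tracer alone without Siah for full effect; strong numbers were not always called active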
Myeloid diff 2 GFP+ MAC1+ % – also measured in Myeloid diff 2; calls as there; GFP+ MAC1+ double positive, %; measured here: differentiation confirmed by MAC1 staining
Numbers without * were called inactive; i = inactive; nt = not tested or not shown; + = active, no number. An excerpt; rates above refer to the full screens.

SMILES	HIV fusion peptide	Myeloid diff 2	Myeloid diff 2 GFP+ MAC1+ %	LYP phosphatase	PhoP inhibition	KOR beta-arrestin	Siah-1 displacement
COC(=O)Sc1nnc(-c2ccc(Br)cc2)o1	2.4%	nt	nt	-4%	-17%	-2.7%	-2%
Cc1ccc(C)c(NC(=S)NNC(=O)c2ccc(Br)o2)c1	-0.7%	i	2.1	0%	8%	2.8%	-2%
CCc1ccc(OCCNC(=O)c2cc(SC)ccc2Cl)cc1	3.3%	i	0.7	2%	15%	5.2%	2%
O=C(NCCCN1CCCCCC1)C1CC(=O)N(C2CCCC2)C1 (stereo not given)	0.3%	i	3.6	-13%	-3%	7.4%	-8%
Cn1nc(C(F)(F)F)c(C(=O)Nc2ccc(Cl)cc2)c1Cl	2.9%	i	1.4	4%	17%	0.9%	-2%
Cc1c(NC(=O)C(C)OC(=O)[C@@H](NC(=O)c2ccccc2)C(C)C)c(=O)n(-c2ccccc2)n1C (stereo not given in full)	-0.3%	i	1.4	-4%	-4%	-0.4%	2%
CCOC(=O)c1c(C)[nH]c(C(=O)C(C)Sc2ccc(Cl)cc2)c1C (stereo not given)	2.4%	i	1.1	7%	2%	0.3%	2%
CCOc1ccc2c(=O)c(Oc3ccccc3)c(C)oc2c1	2.0%	i	1.3	1%	-2%	2.9%	9%
O=C(OC1CCCCC1)c1ccc2c(c1)C1C=CCC1C(C(=O)O)N2 (stereo not given)	56%*	nt	nt	64%*	-3%	-4.6%	44%
Cc1[nH]nc(-c2ccc(O)cc2O)c1-c1ccc(Cl)cc1	1.0%	i	0.7	0%	6%	2.8%	3%
COc1cccc(N(C(=O)Cn2nnc(-c3cccs3)n2)C(C(=O)NC2CCCCC2)c2ccncc2)c1 (stereo not given)	3.1%	i	0.7	0%	2%	2.8%	2%
Cn1c(=O)c2c(nc(NCC3CCCO3)n2Cc2cccc(Br)c2)n(C)c1=O (stereo not given)	-2.4%	i	2.1	-1%	0%	4.4%	0%
COC(CNC(=O)c1ccc(N2CCCC2=O)cc1)OC	-0.5%	i	0.5	-10%	-10%	nt	-7%
Cc1cc(C)n(-c2cc(N3CCN(C(=O)c4cccc(Br)c4)CC3)ccc2[N+](=O)[O-])n1	-2.9%	i	0.7	2%	0%	4.5%	-2%
CCOC(=O)c1c[nH]c2c(C)cc(C)cc2c1=O	0.6%	i	1.6	-6%	-11%	11%	7%
COc1cc(NC(=O)c2ccco2)c(C(=O)O)cc1OC	6.2%	i	1.2	0%	6%	-2.5%	-2%
C=CCNC(=O)c1onc(CSc2cc(C)cc(C)c2)c1C(=O)O	7.8%	i	0.6	3%	-17%	0.4%	3%
CCN(CC)CCOc1ccc2c(c1)C(=NO)c1cc(OCCN(CC)CC)ccc1-2	-0.1%	nt	nt	0%	-1%	4.1%	-2%
CCOC(=O)c1ccc(NC(=O)CCOc2ccc(OC)cc2)cc1	0.0%	i	0.5	-2%	-3%	-6.6%	7%
O=C(Nc1nc2c(s1)CN(Cc1ccccc1)CC2)c1cccc(S(=O)(=O)N2CCc3ccccc32)c1	-2.7%	+	2.3*	2%	-4%	1.1%	2%
Cc1cc(C)c(C#N)c(SCC(=O)C(C)(C)C)n1	-0.2%	i	1.3	-8%	6%	8.0%	-3%
CCOC(=O)CC(=O)Nc1ccccc1C(=O)O	-1.5%	i	0.8	3%	-18%	-1.4%	3%
CC(C)(C)c1ccc(C(=O)c2c[nH]c(C(=O)NCCCn3ccnc3)c2)cc1	-1.4%	i	0.6	-6%	14%	-1.2%	-3%
CC(C)CNC(=S)NC1CC2CCC(C1)N2Cc1ccccc1 (stereo not given)	-2.3%	i	7.5	-11%	-7%	30%	-7%
C/C(CC(=O)Nc1cccc2c1CCCC2)=N\NC(=O)c1ccccc1N	-0.9%	i	5.9	-3%	-11%	0.0%	-2%
Next records
SMILES	HIV fusion peptide	Myeloid diff 2	Myeloid diff 2 GFP+ MAC1+ %	LYP phosphatase	PhoP inhibition	KOR beta-arrestin	Siah-1 displacement
CN1C(=O)CC(NNC(=O)c2ccccc2)C1=O (stereo not given)	0.7%	i	2.5	-6%	-5%	1.5%	3%
CCCC(=O)Nc1sc(C)c(-c2ccc(C(C)CC)cc2)c1C#N (stereo not given)	-2.9%	i	2.7	1%	-8%	-0.3%	-5%
O=C(NC(NC(=S)Nc1ccccc1)C(Cl)(Cl)Cl)c1cccc(Cl)c1 (stereo not given)	-1.4%	i	2.0	7%	-2%	-0.9%	0%
Cc1ccc2oc(-c3cccc(NC(=S)NC(=O)/C=C/c4ccco4)c3)nc2c1	-2.3%	i	1.2	5%	-5%	2.9%	11%
O=C(/C=C/c1ccccc1Cl)Nc1ccncc1	0.8%	+	3.0*	-1%	7%	1.6%	3%
CCCCN(C(=O)c1c(C)[nH]c(C(=O)OCC)c1C)c1ccccc1	-1.9%	i	0.6	-4%	-11%	-5.2%	-8%
Cc1ccc(CS(=O)(=O)CCC(=O)N2CCOCC2)cc1	-0.3%	i	0.8	0%	13%	1.2%	-1%
CC(NC(=O)OC1CCCCC1)N1C(=O)C2C3C=CC(C3)C2C1=O (stereo not given)	-2.4%	i	1.5	-8%	7%	3.8%	1%
COc1ccc(OCc2nnc(SCC(=O)N3c4ccccc4Sc4ccc(Cl)cc43)o2)cc1	2.6%	i	0.4	-2%	3%	-1.9%	0%
COc1ccc(C2C(Oc3ccccc3)C(=O)N2c2cc(C)ccc2C)cc1OC (stereo not given)	1.9%	i	1.0	6%	1%	3.0%	1%
COC(=O)c1cccc(C(=O)Oc2cccc(Br)c2)n1	3.1%	i	1.0	0%	11%	-3.0%	8%
O=C(/C=N/O)Nc1ccccc1	-0.9%	i	0.7	7%	-2%	2.1%	2%
Cc1ccc(NC(=O)CSc2nc(O)cc(=O)n2C)cc1	4.8%	i	1.0	-5%	-3%	-3.3%	0%
Cc1cc(C)n(CC(=O)N/N=C/c2ccc(C)o2)n1	-1.2%	i	1.0	-4%	5%	-1.4%	0%
COc1ccc(CCNc2ccncn2)cc1	-1.3%	i	2.7	-4%	8%	-2.4%	0%
CC(C)OC(=O)C(CC(=O)O)N1CCOCC1 (stereo not given)	0.9%	i	0.7	-10%	7%	5.6%	1%
CCCc1nnc(SCC(=O)N2CCCCC2C)n1CC1CCCO1 (stereo not given)	-2.8%	i	1.7	-12%	-2%	3.8%	0%
CC(C)(O)c1cn(-c2nonc2N)nn1	-0.9%	i	1.1	-8%	5%	-1.3%	0%
N=c1c2c(-c3ccccc3)c(-c3ccccc3)n(Cc3ccccc3)c2ncn1CCCO	-2.5%	i	1.2	-4%	9%	-0.4%	0%
CC(C)(C)C1CCC2(CC1)NC(CO)(CO)CO2 (stereo not given)	1.3%	i	0.7	-4%	-1%	-4.3%	0%
CCOC(=O)C1CCN(C(=O)c2cccnc2Cl)CC1	1.9%	i	1.6	-2%	1%	1.1%	-1%
Nc1ccc2oc(CCc3ccccc3)nc2c1	-1.8%	i	0.5	-1%	2%	-1.1%	2%
N#Cc1cc([N+](=O)[O-])cnc1NCC(O)CO (stereo not given)	-0.5%	i	0.7	-3%	-4%	1.8%	2%
CCC(C)(C(=O)NC1CCCC1)N(C(=O)c1ccccn1)c1ccccc1 (stereo not given)	0.9%	i	0.8	-10%	-7%	11%	1%
COc1ccc(N(C)S(=O)(=O)c2c(C)[nH]c(=O)[nH]c2=O)cc1	-2.6%	i	1.3	-5%	2%	-1.7%	2%
New compounds follow.
SMILES	HIV fusion peptide	Myeloid diff 2	Myeloid diff 2 GFP+ MAC1+ %	LYP phosphatase	PhoP inhibition	KOR beta-arrestin	Siah-1 displacement
O=C(Oc1ccc2cc(Br)ccc2c1)c1cccnc1	-1.8%	i	4.0	-6%	-6%	0.0%	-4%
COc1ccc(/C=N/Nc2nonc2N)cc1	1.2%	i	2.1	-9%	4%	-3.2%	-3%
CC1CCc2c(C(=O)NCCN3CCOCC3)csc2C1 (stereo not given)	-1.6%	i	10	-11%	-3%	5.9%	-3%
CCN1CCCC1CNC(=O)c1cc(NC(C)=O)c(N(C)C)cc1OC (stereo not given)	-0.1%	i	0.9	1%	-9%	3.5%	1%
CN(C)S(=O)(=O)c1ccc(NC(=O)c2c(F)cccc2Cl)cc1	1.0%	i	1.4	-3%	-10%	1.0%	5%
CC1=C(C#N)C(NC(=O)C(C)(C)C)(C(F)(F)F)C(=O)N1 (stereo not given)	-1.0%	i	1.1	-7%	-10%	-1.4%	0%
Cc1cc(=O)oc(C)c1C(=O)NCc1ccccn1	-2.5%	i	0.8	-4%	-1%	1.3%	4%
CC(C)CC(=O)N1CCC(O)(CS(=O)(=O)Cc2ccccc2)CC1	0.7%	i	2.7	-7%	14%	-1.5%	0%
CCN(CC)S(=O)(=O)c1ccc2c(c1)nc(CCC(=O)Nc1cccc(C(F)(F)F)c1)n2CC	-0.3%	i	0.9	1%	-9%	3.1%	1%
OCc1nnn(-c2cccc(C(F)(F)F)c2)c1CO	1.0%	i	0.4	1%	-6%	0.3%	4%
COc1ccccc1NS(=O)(=O)c1cc(C(=O)N2CC(C)CC(C)C2)ccc1C (stereo not given)	2.3%	i	2.2	0%	2%	10%	-7%
Cc1cc(-c2sccc2C)nc(-n2cccc2)n1	11%	i	0.0	7%	3%	7.3%	1%
Cc1[nH]nc2c1C(c1ccccc1)C1=C(CC(C)(C)CC1=O)N2 (stereo not given)	2.7%	i	0.4	-1%	3%	-0.6%	5%
Cc1ccc(S(=O)(=O)Nc2ccccc2-c2ccccc2NS(=O)(=O)c2ccc(C)cc2)cc1	36%	i	0.2	-1%	2%	7.6%	-5%
CCOc1cc(CNc2ccc3c(c2)OCCO3)cc(Br)c1OCC	2.6%	nt	nt	-8%	3%	-0.9%	-4%
CCOC(=O)CC(=O)CSc1nc(-c2ccccc2)cc(-c2ccc(Cl)cc2)c1C#N	11%	+	27*	3%	-6%	4.3%	2%
CN(C)C(=O)CSc1nnc(Cc2ccc([N+](=O)[O-])cc2)o1	-2.4%	i	1.8	-10%	-2%	-0.5%	2%
COc1ccc(/C=C2\NC(=S)N(CC3CCCO3)C2=O)c(OC)c1 (stereo not given)	-2.5%	i	0.7	2%	-2%	0.7%	-4%
Cc1ccc(C(=O)c2oc3nc(C)cc(C)c3c2N)cc1	1.8%	i	1.5	-6%	1%	-0.2%	-1%
Cc1cc(C)c2[nH]c(=O)c(CN(Cc3ccco3)C(=O)c3cccs3)cc2c1	3.4%	nt	nt	-4%	-3%	1.0%	-1%
COc1ccc(OCCn2cc(/C(N)=N/O)c3ccccc32)cc1	-2.1%	i	4.4	-7%	3%	7.0%	0%
O=C1c2ccccc2CCC12N=NCC2c1ccccc1 (stereo not given)	-3.3%	i	0.7	-1%	8%	-1.6%	4%
CN1C(=O)C(CC(N)=O)N(NC(=O)c2ccc(Cl)cc2)C1=S (stereo not given)	-2.4%	i	0.7	-2%	4%	-1.8%	5%
Cc1cc2cc3c(N)[nH]nc3nc2cc1C	2.9%	i	2.0	-1%	-2%	-1.8%	2%
O=C(Nc1cccc(-c2nc3ccccc3s2)c1)c1ccc2c(c1)OCO2	1.5%	i	1.0	6%	3%	-2.6%	2%
O=C(C(Cc1ccccc1)N1C(=O)C2C3C=CC(C3)C2C1=O)N1CCCCCC1 (stereo not given)	1.5%	i	1.3	-3%	6%	-0.1%	1%
Cc1cc(C)c2c(c1)C1C=CCC1C(c1ccc(S(=O)(=O)N3CCOCC3)cc1)N2 (stereo not given)	18%	i	5.2	5%	-7%	2.6%	2%
COC(=O)C(CCSC)NC(=O)CNS(=O)(=O)c1ccc(F)cc1 (stereo not given)	-1.8%	i	1.3	6%	-3%	23%	0%
CCOC(=O)C(/C(N)=N/C(=O)Nc1ccccc1)=C(\C)O	1.8%	i	15	-5%	5%	-1.0%	4%

Reprinted at random: 4 records from the list, in no set order.
SMILES	HIV fusion peptide	Myeloid diff 2	Myeloid diff 2 GFP+ MAC1+ %	LYP phosphatase	PhoP inhibition	KOR beta-arrestin	Siah-1 displacement
CC1CCc2c(C(=O)NCCN3CCOCC3)csc2C1 (stereo not given)	-1.6%	i	10	-11%	-3%	5.9%	-3%
CC(C)CC(=O)N1CCC(O)(CS(=O)(=O)Cc2ccccc2)CC1	0.7%	i	2.7	-7%	14%	-1.5%	0%
CN1C(=O)C(CC(N)=O)N(NC(=O)c2ccc(Cl)cc2)C1=S (stereo not given)	-2.4%	i	0.7	-2%	4%	-1.8%	5%
Cc1cc(C)c2c(c1)C1C=CCC1C(c1ccc(S(=O)(=O)N3CCOCC3)cc1)N2 (stereo not given)	18%	i	5.2	5%	-7%	2.6%	2%

Screening data from PubChem.
